Compound activity from PubChem BioAssay.
Mtb hypoxia rep = PubChem AID 1159583. M. tuberculosis hypoxia-regulated fluorescent reporter, fluorescence. fluorescence inhibition, % (concentration not given with the values). 300,000 tested, 0.1% active;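 active means 35 to 45% if threefold the growth effect, above 45% if 1.5-fold the growth effect; inactive means the rest, general growth blockers included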;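 further: wells of about 50 µL received 100 nL stock; 0% = vehicle wells and 100% = reference inhibitor wells; whole bacteria with a GFP reporter of the hypoxia response; strong numbers were not always called active; many hits fall short of the cut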
RN4220 kill = growth inhibition of S. aureus RN4220, primary screen, OD600 | inhibition, % (test concentration not listed) | AID 1259311, 2017 | 16 h | 330,000 tested, 0.33% active;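 active means z-score of -3 or lower and OD600 up to 0.18 on both plates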;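 further: plate controls were untreated cells for no effect and reference antibiotic for full effect; stock transfer was 100 nL into about 80 µL; one replicate is shown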
Sa ugtP lethal = growth inhibition of ugtP-null S. aureus, primary screen, RN4220 ugtP deletion, OD600. 16 h; some inactives read as strong as hits. growth inhibition, % (test concentration not listed). 330,000 tested, 0.54% active;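 active means z-score under -3 and OD600 up to 0.15 on both plates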;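 further: plate controls were untreated wells for no effect and antibiotic for full effect; wells of about 80 µL received 100 nL stock; the first replicate is given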
Autofluor counter = flagged as autofluorescent in microsphere protease counterscreen | fluorescence intensity (concentration not given with the values) | compound autofluorescence counterscreen, microsphere flow cytometry; hits give high values | 360,000 tested, 3.1% active | AID 624483;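 active means at least 3 SD above the mean of all compounds, about 16000 in these data; inconclusive means too few beads counted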;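 further: 100 nL of 1 mM stock went into each well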
BJeLR lethal = MLPCN primary cell-based screen for lethality selective to Ras in HRASV12 cells. BJeLR (HRASV12) viability, CellTiter-Glo ATP luminescence, 48 h; reference of the scale not given here. inhibition, % (concentration not given with the values). 300,000 tested, 0.17% active;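 active means replicate mean above 50%; inconclusive means above 50% but judged a plate artefact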;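 further: 50 nL library stock added to about 25 µL; numbers are from one replicate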
PrP UTR inh = inhibition of PrP 5' UTR reporter expression; cell-based PrP 5' UTR mRNA reporter, plate reader; inhibition, % (concentration not given with the values); 340,000 tested, 0.35% active;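 active means every replicate at 50% or more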;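 further: 0 = median of the neutral control wells; tested in H4 reporter cells; numbers are from one replicate; inactives centre near -14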
Mtb hypoxia rep growth = also measured in Mtb hypoxia rep; calls as there; growth inhibition, %; measured here: M. tuberculosis growth (absorbance);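 0% = vehicle and 100% = reference antibiotic; read after six days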
Starred values were filed as active, the others as inactive; ? = inconclusive; · = not tested or not shown. Compounds were not picked by outcome; about 4.1% have a hit in one of these screens.

A first look (five entries):
SMILES	Mtb hypoxia rep	Mtb hypoxia rep growth	RN4220 kill	Sa ugtP lethal	Autofluor counter	BJeLR lethal	PrP UTR inh
COc1ccccc1N1CCN(C2CCCN(C(=O)CCC(C)=O)C2)CC1 (stereo unspecified)	16	5	2.6	11	3708	-10	-15
C[C@@H](C(=O)Nc1cccc(S(=O)(=O)N2CCOCC2)c1)N1C(=O)C2CC=CCC2C1=O (stereo partly specified)	·	·	·	·	4760	1	-17
CC(C)(C)NC(=O)CN(Cc1ccc2c(c1)OCO2)C(=O)CNS(=O)(=O)c1ccc(F)cc1	5	12	1.4	11	5618	-8	-22
CC12c3ccccc3C(c3ccccc31)C1C(=O)N(Cc3cccnc3)C(=O)[C@H]12 (stereo partly specified)	6	1	8.0	1	2168	6	-5
Cc1cccc(-n2nc(CC#N)c(C#N)c2N)c1	-4	-3	-4.9	-17	4064	-5	-16

The listing, from the first entry:
SMILES	Mtb hypoxia rep	Mtb hypoxia rep growth	RN4220 kill	Sa ugtP lethal	Autofluor counter	BJeLR lethal	PrP UTR inh
COc1ccccc1N1CCN(C2CCCN(C(=O)CCC(C)=O)C2)CC1 (stereo unspecified)	16	5	2.6	11	3708	-10	-15
C[C@@H](C(=O)Nc1cccc(S(=O)(=O)N2CCOCC2)c1)N1C(=O)C2CC=CCC2C1=O (stereo partly specified)	·	·	·	·	4760	1	-17
CC(C)(C)NC(=O)CN(Cc1ccc2c(c1)OCO2)C(=O)CNS(=O)(=O)c1ccc(F)cc1	5	12	1.4	11	5618	-8	-22
CC12c3ccccc3C(c3ccccc31)C1C(=O)N(Cc3cccnc3)C(=O)[C@H]12 (stereo partly specified)	6	1	8.0	1	2168	6	-5
Cc1cccc(-n2nc(CC#N)c(C#N)c2N)c1	-4	-3	-4.9	-17	4064	-5	-16
CCOC(=O)c1oc2ccccc2c1NC(=O)COc1ccc(F)cc1	1	-1	7.6	0	15804	4	-15
O=C(NCc1ccco1)c1ccc2c(c1)C(=O)N(C1CCCCC1)C2=O	-1	-4	-0.6	7	4217	6	10
Cc1cc(C)c(S(=O)(=O)N2CCN(C(=O)c3ccc4c(c3)OCO4)CC2)c(C)c1	-1	-1	3.7	3	3406	0	-17
CC(=O)NC12CC3CC(C1)CC(C(=O)N1CCN(S(=O)(=O)c4ccc([N+](=O)[O-])cc4)CC1)(C3)C2	5	4	0.3	-1	3813	·	-10
O=[N+]([O-])c1ccc(Cl)c(C=NNC(=S)Nc2ccccc2)c1	0	-1	-0.3	13	·	·	·
COc1ccccc1C(=O)Nc1ccnn1C1CCN(Cc2cnc(N(C)C)s2)CC1	2	7	0.7	6	5434	12	-19
Cc1cccc(N(CC(=O)N2CCOCC2)S(C)(=O)=O)c1	19	5	6.5	4	8735	-6	-27
CC(=O)Nc1ccc(O)c(-c2nc3ccccc3s2)c1	12	-1	-0.8	-1	2983	1	-42
CCSc1nnc([C@@H]2CCCN2C(=O)OC(C)(C)C)o1	·	·	0.4	-3	5189	·	-15
CCS(=O)(=O)c1ccc2oc(Nc3cccc(OC)c3)nc2c1	3	13	9.8	0	4047	5	-44
COc1ccc(S(=O)(=O)Nc2ccc(Oc3ccsc3C(=O)O)cc2)cc1	11	-1	2.0	4	4136	-14	-21
COc1cc(/C=C2/CCCC(C(=O)C(F)(F)F)=C2O)ccc1O	7	4	4.0	8	4068	5	-23
COc1ccc(CN(C(=O)CO/N=C/c2ccccc2)c2ccccc2C(=O)O)cc1	·	·	·	·	1930	1	8
CN(C)C(CNC(=O)c1cc2ccccc2oc1=O)c1ccccc1 (stereo unspecified)	12	7	-0.3	5	3713	-1	-62
C=CCSc1nnc(NC(=O)CSc2nnc(C)s2)s1	·	·	2.3	-4	2761	1	81*
Fc1cccc(Cl)c1-c1nnc2ccc(N3CCOCC3)nn12	7	9	1.3	5	8158	1	-39
O=C(NCC1CC1)C1CCCN(S(=O)(=O)c2ccc(-n3cnnn3)cc2)C1 (stereo unspecified)	0	-4	0.9	5	3280	-19	-2
CCOC(=O)C1=C(CSc2nnnn2C)N(C)C(=O)NC1c1ccccc1 (stereo unspecified)	·	·	-2.5	5	4332	1	-15
Cc1ccc(-c2nc3ncccc3o2)cc1NC(=O)C(C)C	0	12	2.9	11	3677	-3	-15
COc1ccccc1CNS(=O)(=O)c1ccc2c(c1)CCCN2C(C)=O	-1	-1	5.3	-1	5737	9	-5
CC(C)Oc1ccc(C2c3c(oc4ccccc4c3=O)C(=O)N2CCCN2CCOCC2)cc1 (stereo unspecified)	5	2	-1.6	18	24300*	-5	-11
O=C(O)/C(=C\c1cccc(C(F)(F)F)c1)c1ccc(S(=O)(=O)N2CCCC2)s1	7	3	39	5	3736	·	-10
CCOc1ccc(C2CC(c3cccc(Cl)c3)n3nc(N)nc3N2)cc1 (stereo unspecified)	·	·	0.9	-6	6645	6	-12
CCCOc1ccccc1OCC(=O)Nc1cccc(S(=O)(=O)NC2=NCCC2)c1	12	1	2.0	1	4846	·	-3
COc1ccccc1C(=O)CSc1n[nH]c(N)n1	5	9	5.0	0	3711	0	-24
CCN(CC)c1ccc(C2N(C(=O)N3CCOCC3)CCN2S(=O)(=O)c2ccc(C)cc2)cc1 (stereo unspecified)	5	5	8.3	10	8380	8	-4
COc1cccc(N(CC(=O)N2CCCC2)S(C)(=O)=O)c1	3	8	2.2	15	3824	-10	-45
O=S(=O)(/N=C(/NC(=S)Nc1ccccc1)c1ccccc1)c1ccc(Cl)cc1	-1	-1	10	0	3025	14	-47
COc1ccc(NC(=O)CC2C(=O)N(c3cccc(OC)c3)C(=O)N2C(C)C)cc1 (stereo unspecified)	0	4	-9.8	-6	6094	4	-14
O=C1NN(c2ccccc2)C(=O)C2C3C=CC(C4CC34)C12 (stereo unspecified)	-8	-1	-0.9	-2	10315	1	-23
O=C(CSc1nnnn1-c1cccc2ccccc12)NC(C(=O)O)(c1ccccc1)c1ccccc1	5	0	8.0	19	2726	-5	-17
C/C=C/c1ccc(O)c(OC)c1	·	·	0.4	-4	4833	·	-9
Cc1ccc(Nc2nnc(SC(C)C(=O)NC3CC3)s2)cc1 (stereo unspecified)	-6	-5	6.1	4	3179	·	-14
O=C(CCn1nc(-c2ccc(Cl)cc2)ccc1=O)N1CCN(c2ccccc2)CC1	-15	5	9.9	0	3564	-4	-11
CSc1ccccc1OCc1cc(C(=O)N(C)Cc2cc(C)[nH]n2)no1	8	4	7.5	14	·	-3	-2
CSc1ccc(Cl)c(C(=O)OCC(=O)Nc2ccccc2OC(F)F)c1	12	3	12	10	8317	0	-8
CCOC(=O)C(=O)/C(C#N)=C/Nc1ccccc1	·	·	3.2	-2	2936	7	-15
Cc1cc(Cl)c(S(=O)(=O)N/N=C/c2ccc3c(c2)OCO3)c(Cl)c1	·	·	·	·	2142	-5	-16
O=C(NCc1cccnc1)c1ccc(Cl)c(Cl)c1	·	·	0.6	-5	2843	-8	-5
CCN1CCN(CCNC(=O)c2ccc(/C=C3\Sc4ccccc4N(Cc4ccccc4F)C3=O)cc2)CC1	4	2	-3.8	26	5064	-3	-9
O=C(Nc1ccc(NC(=O)c2ccco2)cc1)c1ccco1	-9	-14	-2.2	-1	6050	3	-23
C=CCN1C(=O)/C(=C/c2ccc(O)cc2)S/C1=N/c1nccs1	·	·	·	·	10530	3	6
CCCCn1c(NS(=O)(=O)c2ccccc2)c(C(=O)OCC)c2nc3ccccc3nc21	5	0	33	24	2199	4	-9

Some of the entries so far, with each value named.
O=C(Nc1ccc(NC(=O)c2ccco2)cc1)c1ccco1
  Mtb hypoxia rep: -9; Mtb hypoxia rep growth: -14; RN4220 kill: -2.2; Sa ugtP lethal: -1; Autofluor counter: 6050; BJeLR lethal: 3; PrP UTR inh: -23

C=CCN1C(=O)/C(=C/c2ccc(O)cc2)S/C1=N/c1nccs1
  Mtb hypoxia rep: ·; Mtb hypoxia rep growth: ·; RN4220 kill: ·; Sa ugtP lethal: ·; Autofluor counter: 10530; BJeLR lethal: 3; PrP UTR inh: 6

(list continues)
SMILES	Mtb hypoxia rep	Mtb hypoxia rep growth	RN4220 kill	Sa ugtP lethal	Autofluor counter	BJeLR lethal	PrP UTR inh
CCOC(=O)Cn1c(=O)oc2cc(S(=O)(=O)Nc3ccc(N(CC)CC)cc3C)ccc21	·	·	4.6	4	4451	6	-35
COC(=O)c1ccc(/C=N/N2CCN(Cc3ccccc3Cl)CC2)cc1	·	·	·	·	5010	-3	-2
CCCn1nnnc1NCc1cc(Br)ccc1OC	-2	2	-1.8	-12	4823	-11	-26
N#C/C(=C/c1ccc(Cl)cc1)NC(=O)c1ccccc1	·	·	-6.4	-8	3639	-1	-18
C[C@H](NC(=O)[C@@H]1CSC2c3ccccc3C(=O)N21)C(=O)NC1CCCCC1 (stereo partly specified)	6	-4	5.5	18	4203	1	-19
COC(=O)c1ccccc1N(C)S(=O)(=O)c1cc2c3c(c1)CCC(=O)N3CCC2	7	-2	2.4	0	6342	5	-9
O=C(NN1C(=O)C2C3C=CC(C3)C2C1=O)c1ccncc1 (stereo unspecified)	·	·	·	·	2221	-13	-16
COc1ccc(-c2cc(-c3ccc(C)cc3)nc(SCc3nnc(-c4ccccc4)o3)c2C#N)cc1OC	1	-4	5.2	-2	10069	3	-21
CC[C@]12c3[nH]c4ccc(Cl)cc4c3CCN1C(=O)[C@@H](CC(=O)NCc1cccc(C(F)(F)F)c1)C[C@@H]2C(=O)N1CCN(C(=O)C2CC2)CC1	11	11	-6.7	-10	3829	·	-3
COC(=O)c1ccccc1NC(=O)CSc1nnc(C(C)NC(=O)c2ccc(Cl)cc2Cl)n1C (stereo unspecified)	-1	-3	-3.6	3	22829*	1	1
Cc1cccc(-c2nnn(C/C(N)=N/O)n2)c1	5	0	0.0	-2	2320	1	-25
COc1cc(/C=C2\SC(=S)N(NS(=O)(=O)c3ccccc3)C2=O)ccc1O	11	4	57	31	3432	-8	-21
O=C(Nc1ccc(Br)cc1)C1CCCN1S(=O)(=O)c1cccs1 (stereo unspecified)	·	·	0.2	9	2781	6	-13
CCC(=O)N1CCc2cc(S(=O)(=O)N3CCCCCC3)ccc21	3	-3	6.2	7	4606	-9	4
COc1ccc(NC(=O)COC(=O)Cn2cnc3ccccc3c2=O)c(OC)c1	0	3	0.2	3	5169	·	-14
COc1ccc(NC(=O)CN2CCN(C(=O)C3CCCO3)CC2)c(OC)c1 (stereo unspecified)	1	11	-1.5	-1	5763	-5	2
C#C[C@]1(O)CCC2C3CCC4=CC(=O)CC[C@]4(C)C3CC[C@@]21C (stereo partly specified)	10	3	8.0	-2	·	·	·
CC(=O)Nc1ccc(C2C(=O)c3ccccc3C2=O)cc1	·	·	3.7	6	·	-8	-14
Cc1occc1C(=O)NNC(=S)NC(=O)COc1ccc(Cl)cc1Cl	·	·	·	·	4294	0	-2
CCC(C)(C)NCC(=O)Nc1ccc(OC(F)(F)F)cc1	·	·	-0.1	6	3060	-4	-20
CC(C)c1nc(SCC(=O)NC2CCCCC2)c2ccccc2n1	16	1	4.1	1	3025	-8	7
COc1ccc(/C=C/C(=O)Oc2ccc(/C=N\NC(=O)c3ccc(F)cc3)cc2)cc1	·	·	·	·	2599	-7	-31
Cc1ccc(-n2cccn2)c([C@@H]2C[C@H]3CN(C)C(=O)[C@]34CCCN24)c1	-5	1	0.2	-2	4779	3	67*
CC(NC(=O)COc1ccc(Br)cc1)C1CCCO1 (stereo unspecified)	9	7	4.9	13	4428	1	1
Cc1ccc(NC(=O)CCCNC(=O)c2ccc(Cl)cc2)cc1S(=O)(=O)N1CCCCC1	3	8	15	-5	?	·	-7
CCOC(=O)C1CCCN(Cc2nc(N)nc(Nc3ccc(OC)cc3)n2)C1 (stereo unspecified)	5	6	-0.6	0	3562	-7	-23
CCCS(=O)(=O)N1CCCC(C(=O)NCCCOC(C)C)C1 (stereo unspecified)	6	9	3.7	-8	3385	-6	-21
C=CCn1c(O)c(C(C)=NCc2ccco2)c(=O)[nH]c1=O	0	7	1.6	-2	21930*	-2	-19
CCN(CC)S(=O)(=O)c1ccc(NC(=O)COc2nc3ccccc3nc2N2CCOCC2)cc1	11	7	4.3	-10	2084	-4	-16
CCc1ccc(OCC(O)Cn2c(N3CCCCC3)nc3c2c(=O)[nH]c(=O)n3C)cc1 (stereo unspecified)	4	0	7.6	-2	4446	-20	5
N#Cc1ccc(COc2cccnc2[N+](=O)[O-])cc1	3	-13	1.3	10	3946	-7	-14
CCn1ccnc1CN1CCc2c([nH]c3ccccc23)C1C(C)(C)C (stereo unspecified)	6	4	3.3	-12	4302	-1	-24
CCN(CC)P(c1n(C)cc[n+]1C)N(CC)CC	2	7	7.3	15	3343	-3	-25
